ClpP mod: qHTS Assay for Activators of ClpP | ATP-dependent Clp protease proteolytic subunit (Bacillus subtilis (strain 168)), P80244 | purified B. subtilis ClpP, FRET peptide cleavage, 20 min | Potency, µM (doses to about 57.5 µM), without a hit: at the highest dose activity change, negative = active | 340,000 tested, 1.9% active | AID 651965, 2013; active = well fitted falling curve with a large enough effect; inconclusive = small, poorly fitted or top-dose-only effect; inactive = no such curve, though single readings can be large or run the other way; further: potency means the concentration at half of the fitted maximal effect; the source files actives as falling curves though it sought activators and does not explain the sign; nearly all actives have a fitted effect of over 65% in size; many hits overshoot -100%
Target sequence (P80244 whole entry, looked up): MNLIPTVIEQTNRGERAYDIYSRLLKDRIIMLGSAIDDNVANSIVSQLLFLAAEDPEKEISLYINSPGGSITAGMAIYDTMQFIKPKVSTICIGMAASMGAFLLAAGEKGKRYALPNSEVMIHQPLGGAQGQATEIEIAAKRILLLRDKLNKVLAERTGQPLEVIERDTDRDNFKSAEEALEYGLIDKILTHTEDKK
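FRET quenching reversal measured ClpP activation: 10 microg/mL B. subtilis ClpP at pH 8 with the FRET-FV decapeptide, read at 430 nm after 320 nm excitation. The 20-min minus 0-min signal was scaled between DMSO/no-enzyme wells and ADEP (5.8 microM final).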
Sfp inh: Sfp phosphopantetheinyl transferase inhibition. 310,000 tested, 3.5% active. Potency, µM, for the others: max response, negative = inhibition, actives largely listed as inhibitors. Biochemical Sfp PPTase activity, qHTS. Q9F4F7. AID 1490; active means well fitted inhibition curve with a large enough effect; inconclusive means small, poorly fitted or top-dose-only effect, or another doubt; inactive means no such curve, though single readings can be large or run the other way;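 further: the enzyme is Sfp with the accession as filed and its product quenches rhodamine fluorescence; potency means the concentration at half of the fitted maximal effect; 0% = enzyme reaction without inhibitor and -100% = no enzyme wells; top concentration of the series not given in the record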
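Step 1, compound plus 15 nM Sfp-PPTase, 15 min, room temperature. Step 2, add rhodamine-CoA (5 uM) and BHQ-2-YbbR (12.5 uM). Step 3, read 525/598 nm fluorescence at 0 and 30 min.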
Menin-MLL FL inh: menin-MLL binding inhibition, fluorescein peptide; Fluorescence polarization, fluorescein-MLL peptide displacement from menin; FP activity change, % at 61.4 µM; 290,000 tested, under 10 active; AID 1766; inconclusive = falling polarisation curve, or a change in total fluorescence; inactive = total fluorescence flat and polarisation flat or rising; no compound was filed as active; the % refers to the polarisation; negative = inhibition;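 further: % of control where 0% means no effect; inhibitors lower the polarisation; unlabelled MLL peptide was the positive control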
gsp agonist: activates gsp, the McCune-Albright syndrome mutation. gsp mutant cells, cAMP HTRF, 30 min; control for the full effect not named in the record. Potency, µM (titrated, usually from 76.9 µM), for the others: at the highest dose activation (cAMP increase), actives largely listed as activators. 340,000 tested, 0.13% active. AID 624287; active = well fitted activation curve with a large enough effect; inconclusive = small, poorly fitted or top-dose-only effect, or another doubt; inactive = no such curve, though single readings can be large or run the other way; cell line not stated here;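 further: phosphodiesterase inhibitor Ro 20-1724 added with compounds to block cAMP breakdown; potency means the concentration at half of the fitted maximal effect; nearly all actives have a fitted effect of over 60% in size; about a fifth of the inactives were tested at one dose only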
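Cells stably selected in G418 were plated at 2000/well, grown 16-24 hr, then given compounds in DMSO with the PDE inhibitor […] (300 uM solution added) for 30 min at 37C; cAMP was read by HTRF.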
gsp antagonist: antagonizes gsp, the McCune-Albright syndrome mutation; gsp-mutant cells, cAMP HTRF, 30 min; control for the full effect not named in the record; Potency, µM (series often up to 76.9 µM), for the others: top-dose activity change, negative = inhibition, most hits filed as inhibitors; 340,000 tested, 0.4% active; AID 624288; active = falling curve of any shape with a large fitted effect; inconclusive = falling curve, mostly with a smaller effect; inactive = flat or rising curve; cell line not stated here;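 further: intracellular cAMP measured with PDE inhibitor Ro 20-1724 present during compound exposure; potency means the concentration at half of the fitted maximal effect; on the % scale 0 is the no-effect control and ±100 the full control effect; nearly all actives have a fitted effect of over 65% in size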
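Cells, 2000/well, grown 16–24 h in DMEM 10% FBS with 0.5 mg/ml G418, then compounds plus […] (300 uM addition stock), 30 min at 37C. cAMP read by HTRF (cAMP-d2 and anti-cAMP antibody-K in lysis buffer) after 30 min RT.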
TRPML1 blocker: blocks the human TRPML1 channel; TRPML1-inducible cells, Ca2+ dye fluorescence, FDSS; stronger effect = lower value; inhibition of EC80 agonist-evoked calcium signal; activity change, negative = inhibition, % (test concentration not listed); Q9GZU1; 390,000 tested, 0.02% active; in the data active means activity change below about -50%; inconclusive means about -30% to -50%; inactive means above about -30%;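 further: stimulus is agonist 54-4 at its EC80 concentration; on the % scale 0 is the no-effect control and ±100 the full control effect; compound concentration not given in the record; the text of the record puts the active cut at -80%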
Target sequence (Q9GZU1 whole entry, looked up): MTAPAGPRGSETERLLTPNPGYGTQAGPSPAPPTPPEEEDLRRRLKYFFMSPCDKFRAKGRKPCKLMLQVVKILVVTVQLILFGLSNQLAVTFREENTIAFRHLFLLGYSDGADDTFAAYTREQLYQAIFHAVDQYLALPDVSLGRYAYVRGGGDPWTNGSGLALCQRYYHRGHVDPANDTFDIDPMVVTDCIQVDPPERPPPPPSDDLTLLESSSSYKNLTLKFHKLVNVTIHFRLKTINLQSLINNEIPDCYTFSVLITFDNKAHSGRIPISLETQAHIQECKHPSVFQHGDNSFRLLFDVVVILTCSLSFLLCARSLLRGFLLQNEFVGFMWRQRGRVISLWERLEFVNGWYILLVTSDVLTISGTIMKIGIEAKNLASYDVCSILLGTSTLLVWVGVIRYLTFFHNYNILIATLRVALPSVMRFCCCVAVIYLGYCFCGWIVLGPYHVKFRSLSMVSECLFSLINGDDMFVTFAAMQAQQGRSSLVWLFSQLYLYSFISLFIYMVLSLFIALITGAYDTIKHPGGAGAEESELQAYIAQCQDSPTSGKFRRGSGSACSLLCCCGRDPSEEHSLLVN
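TRPML1-DL cells, Tet-induced overnight (~16 h, 37 °C) at 1,500 cells/well, were loaded with Ca8 no-wash dye plus quencher for 45-90 min at room temperature. Compounds were pinned during FDSS kinetic reading; agonist 54-4 at EC80 (4 uM final) then added.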
TRPV1 PAM: enhances activation of the human vanilloid receptor TRPV1. TRPV1-expressing cells, Fluo-8 calcium influx, capsaicin EC20 potentiation; host cell line not named in the record; control for the full effect not named in the record. potentiation, % at 8.33 µM. 320,000 tested, 0.02% active. AID 540277; active means potentiation above 80%; inconclusive means 30% to 80%; inactive means below 30%; further: 0% is about no effect
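Cells expressing TRPV1 were dye-loaded with Fluo-8 and read kinetically: 10 s baseline, 3 min after compound (agonist portion), then 2 min after EC20 capsaicin (allosteric enhancer portion). Calcium-bound dye fluorescence at 480/520 nm.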
Active calls of the source: *; ? = inconclusive; · = no result given; & = joins results of further samples; [ ] = dose if it differs, or a comment. No enrichment for hits; overall some 4.9% were active at least once.

SMILES	ClpP mod	Sfp inh	Menin-MLL FL inh	gsp agonist	gsp antagonist	TRPML1 blocker	TRPV1 PAM
CCCCNC(=S)NCc1ccc2[nH]c3c(c2c1)CCCC3	-1.5%	-4.8%	-8.7	-79.0%	-1.6%	13.5	?
O=C(COC(=O)c1cc(C(F)(F)F)cc(C(F)(F)F)c1)NCc1ccc(Cl)cc1	0.8%	-0.7%	3.6	-44.1%[inhibitor]	-12.3%	-4.9	-14.7
O=C(Nc1cccc(-c2nc3ncccc3o2)c1)c1ccccc1	-2.6%	14.4%	5.4	-2.4%	?	-13.2	-21.4
CCCCn1c(SCC(=O)NCc2ccc(OC)c(C(=O)O)c2)nc2cc(S(N)(=O)=O)ccc21	·	0.7%	·	12.5%[15.4 µM]	2.2%	9.7	-1.2
COc1cccc(CNc2nc(-c3cccnc3)nc3ccccc23)c1	4.5%	-14.3%	-1.2	-2.8%[15.4 µM]	-0.6%	15.2	9.9
Cc1cccc(NC(=O)c2sc3nc(-c4ccccc4)cn3c2C)n1	?	?	?	?	0.1%	-6.7	19.9
CC(=O)Nc1ccc(S(=O)(=O)N(C)CC(=O)OC(C)C(=O)NC2CCCCC2)cc1 (stereo not given)	0.6%	·	·	7.8%[15.4 µM]	5.0%	17.1	3.8
C/C(=N/NC(=O)c1ccc2c(c1)OCCO2)c1ccc([N+](=O)[O-])cc1	·	7.0%	-0.6	6.2%	2.6%	-6.7	·
CC(C)c1ccccc1NS(=O)(=O)N(C)C	·	-10.8%	1.0	5.6%	0.7%	-17.0	14.6
CN(Cc1ccccc1)c1nc(N)nc(Cl)c1C=O	·	4.9%	-0.2	-11.1%[15.4 µM]	-5.0%	-3.1	-2.9
Cc1cccc(NC(=O)CN(C)C(=O)C2CC2)c1C	-0.9%	·	·	?	2.3%	-1.7	12.7
COCCN(C(=O)CCC(=O)Nc1cc(C)on1)C(C(=O)NC(C)(C)C)c1ccc(OC)cc1 (stereo not given)	0.3%	4.0%	-2.4	-4.3%[15.4 µM]	-3.6%	-2.9	-19.6
Nc1nnc(C(F)(F)F)s1	1.1%	19.4%	0.9	?	7.3%	-3.3	8.6
CC1CCC2(CC1)NC(=O)N(CC(=O)Nc1cccc(C#N)c1)C2=O (stereo not given)	1.3%	·	·	?	4.8%	-2.9	12.1
COc1ccc(CN(C(=O)c2cc3ccccc3oc2=O)C2CCS(=O)(=O)C2)cc1 (stereo not given)	0.2%&-4.6%	5.3%	2.7	12.1%[15.4 µM]	5.5%	8.5&-1.1	-0.8
O=C(CN(c1ccc(Cl)c(Cl)c1)S(=O)(=O)c1ccccc1)N1CCc2ccccc2C1	0.9%	11.5%	0.9	6.4%	?	29.9	1.4
CCCn1c(N)c(C(=O)COC(=O)CCNS(=O)(=O)c2ccccc2F)c(=O)[nH]c1=O	-4.1%	·	·	?	8.3%	3.9	-3.8
Cc1cc(=O)oc(C)c1C(=O)OCC(=O)c1ccc(Cl)c(Cl)c1	0.0%	1.7%	-2.0	15.9%	-25.0%	10.3	7.3
COCCNC(=O)COC(=O)c1ccc(OCC(=O)Nc2ccccc2OC)c(OC)c1	-3.4%	15.3%	4.0	0.9%	-0.9%	44.9	9.6
C/C(=N\O)c1ccc2c(c1)OCCO2	-10.8%	8.5%	2.6	5.8%	-6.5%	-23.4	1.5
COCCCNCCOCCOc1ccc(Cl)cc1C(C)(C)C	-4.8%	-21.3%	0.0	-11.2%	28.8%	-7.6	1.7
CC(=O)NC1C(=O)N=C(SCC(=O)Nc2ccc(C(F)(F)F)cc2Cl)NC1=O (stereo not given)	-1.0%	-10.1%	-5.2	7.4%	-10.1%	-9.2	8.8
CC(C)c1ccc(OC(=O)NCCO)cc1	0.7%	0.4%	-2.6	26.3%	15.0%	-12.0	3.9
N#Cc1ccc(CN2CCN(C(=O)c3ccc(S(=O)(=O)NCc4ccco4)cc3)CC2)cc1	-4.7%	·	·	-0.4%	-14.6%	11.8	3.8
O=C1c2ccccc2C(=O)N1c1ccc(Cl)cn1	-2.6%	-0.4%	-2.4	-1.0%	5.5%	-8.7	6.8
Later entries.
SMILES	ClpP mod	Sfp inh	Menin-MLL FL inh	gsp agonist	gsp antagonist	TRPML1 blocker	TRPV1 PAM
Cc1nc2ccc(NC(=O)c3ccc([N+](=O)[O-])cc3)cc2s1	0.5%	7.3%	-1.4	-36.0%[inhibitor]	1.0%	31.6	-4.5
COc1ccc(NC2CCCN(C(=O)c3ccc(C)nc3)C2)cc1 (stereo not given)	-0.3%	13.9%	2.7	-6.5%	-12.0%	2.0	7.5
O=C1C2C(c3cccc(/C=C/c4ccccc4)c3)CC=CC2C(c2ccc(C(F)(F)F)cc2)N1Cc1ccccc1 (stereo not given)	?	3.5%&6.5%	6.9&3.0	·	2.7%	15.7&9.3	29.6
O=C(O)C1CCCCC1C(=O)NCCCN1CCCC1=O (stereo not given)	·	8.1%	4.9	10.0%	7.3%	6.3	?
CCC(C)(C)n1nnnc1C(C(C)C)N1CCN(C(=O)c2ccco2)CC1 (stereo not given)	·	7.1%	·	7.5%	-7.8%	3.6	-4.2
CCOc1nc(SCCOc2ccc(Cl)cc2Cl)nc(N(C)C)n1	-1.1%	-12.2%	1.2	-12.0%	-5.2%	-5.6	3.5
COc1ccc(OCc2n[nH]c(=S)n2-c2ccc(C)cc2)cc1	1.0%	-22.9%	-0.5	-32.8%[inhibitor]	?	0.5	15.5
C=CCn1c(SCC(=O)Nc2sccc2C(N)=O)nc2sc(C)c(C)c2c1=O	13.5%	-5.0%	1.9	-3.3%	18.4%	3.4	-0.9
O=C(OC(C(=O)NCc1ccccc1)c1ccccc1)c1ccco1 (stereo not given)	·	-3.3%	·	-3.3%	1.1%	4.0	1.3
CCOC(=O)c1c(-c2ccccc2)cn2c(C)cc(C)nc12	·	3.6%	3.9	13.4%	11.2%	7.5	-21.6
CC(C)(C#N)c1cc(Cn2cncn2)cc(C(C)(C)C#N)c1	·	15.4%&0.1%	-2.8&-0.9	·	·	·	6.3
CC(NC(=O)C1CCC(C(C)(C)C)CC1)C(c1ccccc1)N1CCOCC1 (stereo not given)	·	-0.3%	11.1	?	-9.4%	-4.9	-31.4
Nc1ccc(S(=O)(=O)NNC(=O)C(=O)NNc2ccccn2)cc1	0.8%	22.6%	1.0	0.0%	8.3%	4.5	-1.1
O=C(NC(=S)NCc1cccnc1)c1ccccc1F	·	4.4%	-8.7	0.1%	6.1%	-2.4	7.3
Cc1c(NC(=O)COC(=O)C(c2ccc(Cl)cc2)C(C)C)c(=O)n(-c2ccccc2)n1C (stereo not given)	0.3%	0.0%	3.1	-63.1%[inhibitor]	-8.2%	8.6	17.8
COc1cc(/C=C2\SC(=S)N(CC(=O)Nc3cccnc3)C2=O)cc(OC)c1OC	·	-14.7%	2.5	2.3%[15.4 µM]	-33.7%	12.6	-2.7
CCNC(=O)/C(C#N)=C/c1c(N2CCN(C)CC2)nc2c(C)cccn2c1=O	0.0%	14.4%	-1.7	-2.2%[15.4 µM]	10.1%	6.6	-8.3
CC(=O)c1c(C)[nH]c(C(=O)OCC(=O)NCCc2ccc(Cl)cc2)c1C	1.5%	-1.5%	0.2	-42.4%[inhibitor]	?	-1.6	3.6
CCOc1cc(C(=O)N/N=C(\C)Cc2ccc(OC)cc2)cc(OCC)c1OCC	-1.2%	-2.1%	0.2	12.5%	-0.5%	30.9	2.6
CC1(C)S[C@@H]2[C@H](NC(=O)[C@H](N)c3ccccc3)C(=O)N2[C@H]1C(=O)OC1OC(=O)c2ccccc21 (stereo not given in full)	-19.9%	·	·	·	-6.5%	-17.0	-5.7
Cc1ccc(S(=O)(=O)N2CCCCC2)cc1C(=O)NCc1ccncc1	·	5.9%	-0.5	11.7%	14.2%	7.9	11.4
CN1CCS/C1=C/C=C1\SC(=S)N(CC(=O)O)C1=O	·	?	?	24.0%	?	21.9	-14.5
C=CCOc1ccc(CN(C)C(=O)C2CCCO2)cc1 (stereo not given)	·	13.9%	-5.0	0.4%[15.4 µM]	3.9%	43.9	-2.2
Cc1cccc(NC(=O)Cn2nc(-c3ccco3)ccc2=O)c1C	·	-13.3%	1.3	10.0%[15.4 µM]	3.6%	15.9	-3.0
O=C(CSc1nnc2ccccn12)NNC(=O)c1cccc([N+](=O)[O-])c1	-4.8%	·	·	28.3%	6.0%	0.3	13.3

Rewritten bar-delimited: entries from further up
smiles | ClpP mod | Sfp inh | Menin-MLL FL inh | gsp agonist | gsp antagonist | TRPML1 blocker | TRPV1 PAM
Nc1ccc(S(=O)(=O)NNC(=O)C(=O)NNc2ccccn2)cc1 | 0.8% | 22.6% | 1.0 | 0.0% | 8.3% | 4.5 | -1.1
O=C(NC(=S)NCc1cccnc1)c1ccccc1F | · | 4.4% | -8.7 | 0.1% | 6.1% | -2.4 | 7.3

(more compounds)
SMILES	ClpP mod	Sfp inh	Menin-MLL FL inh	gsp agonist	gsp antagonist	TRPML1 blocker	TRPV1 PAM
O=c1[nH]nc(-c2ccc(F)cc2)cc1Cc1ccccc1	-1.5%	7.3%	5.6	1.7%	11.9%	-5.9	5.3
CCOC(=O)c1ccc(CNC(=O)Cn2nnc(-c3cccc(C)c3)n2)o1	·	7.7%	-9.9	·	·	·	9.1
O=c1c2c(-c3ccccc3)csc2nc2n1CCC2	-0.7%	31.6µM*	3.5	0.8%	-1.6%	6.7	4.2
COc1cccc(C2NC(CCSC)(C(=O)O)C3C(=O)N(C(C)C)C(=O)C23)c1O (stereo not given)	-5.8%	?	0.5	-9.3%	3.8%	-4.8	7.3
Cc1cc(CCN2CCC(=O)NC2=S)ccc1OC(C)C	0.2%	16.0%	-1.3	?	-3.4%	14.6	-6.5
CCC(CC)c1nnc(NC(=O)CCc2ccccc2OC)s1	·	11.1%	-0.3	8.7%	10.2%	16.6	2.5
S=c1[nH]nc(-c2ccc3ccccc3n2)n1Cc1ccccc1	-4.1%	1.5%	4.2	0.9%[15.4 µM]	?	-11.9	-3.7
Cc1cnc(C(=O)OCC(=O)NC(=O)NC(C)C)cn1	0.9%	9.5%	1.1	-17.6%	2.1%	8.3	-1.9
